CBX7 AlphaScr: CBX7 chromodomain binding inhibitors, primary screen, biochemical, AlphaScreen; Chromobox protein homolog 7 (Homo sapiens), O95931; AlphaScreen His6-CBX7 / biotin-H3K27me3 peptide binding; active compounds read low; hit rate 1.1% among 66,000; normalised signal (fraction of DMSO) (test concentration not listed); in the data active means normalised signal below about 0.5;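 further: 100 nL library stock added to about 20 µL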
Target sequence (O95931 whole entry, looked up): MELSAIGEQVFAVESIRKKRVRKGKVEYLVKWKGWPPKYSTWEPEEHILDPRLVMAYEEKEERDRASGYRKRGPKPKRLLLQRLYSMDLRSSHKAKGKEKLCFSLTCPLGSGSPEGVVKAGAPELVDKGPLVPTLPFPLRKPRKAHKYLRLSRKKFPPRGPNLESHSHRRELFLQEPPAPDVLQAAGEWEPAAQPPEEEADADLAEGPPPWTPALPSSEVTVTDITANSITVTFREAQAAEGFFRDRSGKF
CBX7 AlphaScr z-score: recorded beside CBX7 AlphaScr, whose call it bears; z-score; measured here: z-score of CBX7 signal; some inactives read as strong as hits; reference of the scale not given here;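 same signal on another scale; lower means less binding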
The depositor's hits bear a star; & = joins results of further samples. Some of the compounds tested. The share of hits here may be higher or lower than overall.

Compound	CBX7 AlphaScr	CBX7 AlphaScr z-score
CC(=O)N1CCc2cc(S(=O)(=O)NC(CC(C)C)C(=O)O)ccc21 (centres undefined)	0.979	-0.573
Cc1nc2c(C(=O)NCc3ccc(F)cc3)cnn2c(C)c1Cc1ccc(F)cc1	1.08	3.58
CC(C)CCC(O)(CCN1CCCCC1)c1ccccc1 (centres undefined)	0.836	-1.95
O=C(Nc1ccc(Cl)cn1)c1cn(-c2ccc(F)cc2F)c(=O)c2ccccc12	1.02	0.504
Cc1nc2c(-c3ccccc3)c(C)nn2c(C)c1CCC(=O)Nc1ccc2c(c1)OCCO2	1.1	1.1
CCN(CC)S(=O)(=O)c1ccc2c(c1)N(CC(=O)NC1CCCc3ccccc31)C(=O)CO2 (centres undefined)	1.01	0.213
Cc1ccc(-c2nc(-c3ccc(F)cc3)[nH]c2-c2ccccc2)cc1C	0.958&0.936	-1.24&-0.225
CCCCCn1c(CNC(=O)COC)nc2ccccc21	0.942	-0.665
Cc1ccsc1-c1nc(-c2ccccc2)c(-c2ccccc2)[nH]1	1.06	0.0559
CCOC(=O)N1CCN(C(=O)Cn2ncc3ccsc3c2=O)CC1	0.919	-1.03
COc1ccc2c(=O)c(-c3ccccc3OC)c(C(F)(F)F)oc2c1	0.979	-0.61
CCOc1ccc2nc(N3CCCC(C(=O)Nc4ccc(Br)cc4F)C3)sc2c1 (centres undefined)	1.02	0.423
COc1ccccc1Cn1c(CCC(=O)O)nc2cccnc21	0.965	-0.462
Cc1cccc(-n2c(C)nc3c(cnn3-c3ccc(Cl)cc3)c2=O)c1	0.854	-1.88
CCCCN(C)Cc1c(C)[nH]c2ccc(C)cc2c1=O	1.06	0.976
Cc1cccc(C(=O)Nc2cccc(-c3nc4ccccc4o3)c2)c1	0.925	-0.719
CCC(=O)N1CCc2cc(S(=O)(=O)NCCC(=O)Nc3ccc(Cl)cc3)ccc21	0.973	-0.878
CCCCc1ccc(NC(=O)CSc2nccn2-c2ccc(OC)cc2)cc1	0.812	-2.88
CCOc1ccc(NCC2C(Oc3ccc(Cl)cc3)C(=O)N2c2ccc(OCC)cc2)cc1 (centres undefined)	0.967	-0.4
COCCNC(=O)CSc1nc(-c2ccc(OC)cc2)[nH]c1-c1ccc(Cl)cc1	1.01	0.237

(next part)
Compound	CBX7 AlphaScr	CBX7 AlphaScr z-score
CC(C)c1ccc(OCC(O)Cn2c(C(F)(F)F)nc3ccccc32)cc1 (centres undefined)	0.99	-0.406
Cc1nc2ccc(S(=O)(=O)N(C)CC(=O)NCc3ccc(F)cc3)cc2s1	1.23	1.32
O=C1CC(c2ccccc2Cl)C2=C(CCCC2=O)N1 (centres undefined)	0.996	-0.0597
O=C(CCCC1=NS(=O)(=O)c2ccccc2N1)Nc1nc2ccc(Cl)cc2s1	1.04	0.914
CC(C)c1nnc(NC(=O)Nc2ccccc2)s1	1.19	0.795
Cc1cccc(Nc2cc(C(=O)NCc3ccc4c(c3)OCO4)c3ccccc3n2)c1C	0.798	-3.08
CCn1c(SCC(=O)Nc2ccc(F)cc2)nnc1-c1c[nH]c2ccccc12	1.12	0.773
Cc1ccc2nc(-c3cccs3)c(NC3CCCCC3)n2c1	1.1	1.07
Cc1ccccc1OCCCC(=O)Nc1nc2ccccc2s1	0.997	-0.0821
COc1cccc(CNc2ccc3c(c2)ncn3C(C)(C)C)c1OC	0.639	-10.4
Cc1ccc(CNC(=O)c2cnn3c(C)c(Cc4ccc(Cl)cc4)c(C)nc23)cc1	0.982	-0.541
CCn1c(SCc2ccccc2)nnc1-c1c[nH]c2ccccc12	0.946	-0.352
O=C(NCc1ccccc1)C1CCN(C(=O)c2cc3sccc3n2Cc2ccc(F)cc2)CC1	0.974	-1.03
COc1ccc(S(=O)(=O)N2CCC(C(=O)NCc3cccnc3)CC2)cc1	1.06	2.56
COc1cccc(NC(=O)C2CCN(C(=O)c3cnn(-c4ccccc4)c3-n3cccc3)CC2)c1	0.982	-0.701
CCC(C)NC(=O)c1cc(Nc2ccc(C)c(C)c2)nc2ccccc12 (centres undefined)	1.02	0.233
Cc1ccc(N(CC(=O)Nc2ccc(C(C)C)cc2)S(=O)(=O)c2c(C)nn(C)c2C)cc1	1.1	0.745
Cc1nc2cc(-c3ccccc3)nn2c(C)c1CCC(=O)NC(C)C	1.04	1.07
O=C(NC1CCCc2ccccc21)c1csc2c1CCCCC2 (centres undefined)	0.994	-0.151
CCc1ccc2nc(Nc3nc(C)c(CC)c(=O)[nH]3)nc(C)c2c1	0.928	-3.28

Further results follow.
Compound	CBX7 AlphaScr	CBX7 AlphaScr z-score
O=C(NC(c1ccccc1)c1c(O)ccc2ccccc12)c1ccc(Cl)cc1 (centres undefined)	0.981	-0.185
COc1ccc(C(=O)Nc2cccc3c2C(=O)NC3=O)cc1	1.06	1.29
COC(=O)c1ccc(Nc2ncnc3c2cnn3-c2cccc(C)c2)cc1	1.02	0.946
O=C(O)c1cccc(NC(=O)c2ccc(Cl)c(S(=O)(=O)N3CCCCCC3)c2)c1	0.985	-0.176
O=C(NCCCN1CCN(c2ccccc2F)CC1)C1CCC(=O)N1C1CCCCC1 (centres undefined)	1.05	2.34
N#Cc1nc(COc2ccc(F)cc2)oc1N1CCCCCC1	0.496*	-3.15*
COCCCNC(=O)CCc1c(C)nc2nc(-c3cc(OC)cc(OC)c3)nn2c1C	1.02	0.102
CCc1ccc2nc(N3CCC(C(=O)NCCCN4CCC(N5CCCCC5)CC4)CC3)sc2c1	1.02	0.506
Cc1nc2c(C(=O)NCCc3ccc(Cl)cc3)c[nH]n2c(=O)c1Cc1ccccc1F	1.07	1.55
Cc1nc2c(-c3ccccc3)c(C)nn2c(C)c1CCC(=O)NCc1ccccc1Cl	1.04	1.42
CCOCCCNC(=O)C1CCC(=O)N1CCc1ccccc1 (centres undefined)	1.01	0.212
O=C(NCCC1=CCCCC1)c1ccc2c(c1)ncn2-c1cccc(Cl)c1	0.88	-2.37
COc1ccc(Cn2c(=O)[nH]c3cc(C(=O)NCCCN4CCOCC4)ccc3c2=O)cc1	1.04	0.972
CCOCCn1cnc2sc(C(=O)NCc3ccc(F)cc3)c(C)c2c1=O	1.07	2.21
CCc1nnc(NC(=O)CSc2nccn2-c2ccc(Cl)cc2)s1	1.18	1.4
O=C(Nc1cccc(F)c1)c1cc(-c2ccc(Cl)cc2)nc2ccccc12	1.21	0.73
CCOc1cc2c(cc1OCC)C(c1ccc(F)c(F)c1)NCC2 (centres undefined)	1.06	1.07
CCOc1ccccc1NS(=O)(=O)c1ccc(OC)c(OC)c1	1.05	0.861
O=C(NCCCN1CCCC1)c1cc(=O)[nH]c2ccc(S(=O)(=O)N3CCCC3)cc12	1.02	0.191
COc1cccc(C(=O)Nc2c3c(nn2-c2ccc(C)cc2)CSC3)c1	0.919	-2

Following part:
Compound	CBX7 AlphaScr	CBX7 AlphaScr z-score
COC(=O)c1c(NC(=O)c2ccccc2F)sc(C)c1C	1.33	0.833
Cc1ccc(-n2nnnc2SCc2ccccc2F)cc1C	1.12	3.12
COc1ccc(C2c3[nH]c4ccccc4c3CCN2C(=O)c2ccc(F)c(F)c2)cc1 (centres undefined)	0.648	-8.78
COc1ccccc1-c1cc(C(=O)NCc2cccnc2)no1	1.04	1.57
Cc1ccc(CN2C(=O)CCC2(C)C(=O)NCc2cccnc2)cc1 (centres undefined)	1.04	1.45
Cc1c(C)n(Cc2ccccc2)c2ccc(C(=O)NC3CCCC3)cc12	1.03	0.58
O=C(NC1CCCC1)C1CCN(S(=O)(=O)c2cnc[nH]2)CC1	1.13	2.08
O=C(CN1C(=O)CCSc2ccccc21)N1CCN(Cc2ccc3c(c2)OCO3)CC1	1.09	3.73
Cc1nnc(Sc2cc(C(=O)NCc3ccc4c(c3)OCO4)c3ccccc3n2)s1	1.03	0.535
CC(=O)Nc1nnc(Cc2ccc(Cl)c(Cl)c2)s1	1.04	0.166
Cc1c(C(=O)NCCc2ccccc2)oc2ccc(S(=O)(=O)N3CCC4(CC3)OCCO4)cc12	1.03	0.341
COc1ccc(Br)cc1CNC(=O)CN1C(=O)COc2ccc(C(C)(C)C)cc21	0.928	-1.99
Cc1ccc2nc(-c3c[nH]c4ccccc34)c(Nc3ccccc3C)n2c1	0.976	-0.508
O=C(Nc1nnc(COc2ccccc2)s1)c1ccc(F)cc1	0.968	-0.792
O=C1CC(c2ccc(S(=O)(=O)NCCc3ccccc3)cc2)CN1 (centres undefined)	1.2	1.91
CCc1cccc(C)c1Nc1c(-c2ccc(F)cc2)nc2cnccn12	1.28	11.5
NC(=O)C1CC(=O)N(c2ccc(OCC(=O)Nc3ccccc3)cc2)C1 (centres undefined)	1.04	1.49
COC(=O)CN(c1ccc(OC)cc1)S(=O)(=O)c1ccc2[nH]c(=O)c(=O)[nH]c2c1	0.989	-0.268
O=C1CC(c2cc3c(cc2Cl)OCO3)c2cc3c(cc2N1)OCCO3 (centres undefined)	0.936	-0.814
Cc1onc(-c2ccccc2Cl)c1C(=O)Nc1cccc(F)c1	1.06&1.05	0.422&1.2

Looked up above.
CCc1cccc(C)c1Nc1c(-c2ccc(F)cc2)nc2cnccn12 in CBX7 AlphaScr has 1.28
O=C(Nc1nnc(COc2ccccc2)s1)c1ccc(F)cc1 in CBX7 AlphaScr z-score has -0.792

Structural class, those above with a thiophene ring, fused or not
Compound	CBX7 AlphaScr	CBX7 AlphaScr z-score
Cc1ccsc1-c1nc(-c2ccccc2)c(-c2ccccc2)[nH]1	1.06	0.0559
CCOC(=O)N1CCN(C(=O)Cn2ncc3ccsc3c2=O)CC1	0.919	-1.03
Cc1ccc2nc(-c3cccs3)c(NC3CCCCC3)n2c1	1.1	1.07
O=C(NCc1ccccc1)C1CCN(C(=O)c2cc3sccc3n2Cc2ccc(F)cc2)CC1	0.974	-1.03
O=C(NC1CCCc2ccccc21)c1csc2c1CCCCC2 (centres undefined)	0.994	-0.151
CCOCCn1cnc2sc(C(=O)NCc3ccc(F)cc3)c(C)c2c1=O	1.07	2.21
COC(=O)c1c(NC(=O)c2ccccc2F)sc(C)c1C	1.33	0.833

Next section:
Compound	CBX7 AlphaScr	CBX7 AlphaScr z-score
COc1ccc(CCNC(=O)CSc2nnc(CNC(=O)c3c(F)cccc3Cl)o2)cc1OC	0.993	-0.315
CCN(CC)CCOc1nnc(-c2ccc(Cl)cc2)c2ccccc12	0.763	-0.934
Cc1ccc(-c2nnc(Nc3ccc(CC(N)=O)cc3)c3ccccc23)cc1S(=O)(=O)N1CCCCC1	0.944	-0.264
O=C(Nc1ccc2nc3n(c(=O)c2c1)CCCCC3)c1ccccn1	1.02	0.811
O=C(CN1C(=O)COc2ccc(S(=O)(=O)N3CCOCC3)cc21)N1CCCCCC1	1.02	0.785
Cc1cccc(-c2nc3c(cnn3-c3ccccc3)c(=O)n2-c2ccccc2C)c1	0.887	-4.47
CCc1ccc(NC(=O)c2csc3c2CCCC3)cc1	1.15	6.2
CC1=C(C(=O)Nc2cc(C)ccn2)C(c2ccc(Cl)cc2)C2=C(CC(C)(C)CC2=O)N1 (centres undefined)	1.16	0.338
Cc1ccc(-n2nc(C)c3c(C)c(CCC(=O)NCc4ccccc4Cl)c(C)nc32)cc1	1.09	0.708
CC(=O)C1C(c2cccc([N+](=O)[O-])c2)c2c(noc2C)CC1(C)O (centres undefined)	1.08	0.88
CCC1=Nc2cc(C(=O)NCCCN3CCN(C)CC3)ccc2Sc2ccccc21	0.827	-1.99
Cc1ccc(NC(=O)C2CC(=O)N(C(C)C)C2)cc1Cl (centres undefined)	0.983	-0.372
CCOC(=O)c1ccc(NC(=O)Cn2nnc(-c3ccccc3C)n2)cc1	0.977	-0.618
Cc1cc(C)cc(NS(=O)(=O)c2ccc3[nH]cc(C(=O)NC4CCCCCCC4)c(=O)c3c2)c1	0.859	-1.86
Cc1csc2ncc(C(=O)Nc3ccc(Br)cc3F)c(=O)n12	1.07	0.518
Cc1ccc(NC(=O)CC2Sc3ccccc3NC2=O)cc1Cl (centres undefined)	1.02	0.129
O=C(Cn1nc(-c2ccccc2)ccc1=O)NCc1cccs1	1.04	2
O=C(Cn1nc(-c2ccccc2)ccc1=O)NC1CCCCCCC1	0.993	-0.186
CCCCCn1c(C(C)NC(=O)C(C)(C)C)nc2ccccc21 (centres undefined)	1.05	0.691
Cc1c(C(=O)N2CCC(C)CC2)sc2ncn(CC(=O)N3CC(C)CC(C)C3)c(=O)c12 (centres undefined)	0.971	-0.764

Going on with the list:
Compound	CBX7 AlphaScr	CBX7 AlphaScr z-score
CCn1cc(C(=O)NCCCN2CCOCC2)c(=O)c2ccc(C)nc21	1.06	0.697
O=C(Cn1ncc2ccsc2c1=O)N1CCN(c2ccccc2)CC1	0.997	-0.106
CN(CCC#N)C(=O)c1ccc2c(c1)N(Cc1cccc(Cl)c1)C(=O)c1ccccc1S2=O (centres undefined)	1.01	0.086
Cc1ccc(CN2C(=O)Cn3cccc3C2C(=O)NC2CCCCC2)cc1 (centres undefined)	0.961	-1.04
CCN(C(=O)c1c(-c2ccccc2)noc1C)C1CCCCC1	0.939	-0.697
O=C(COc1ccc(Br)cc1)N(Cc1cccs1)C1CCS(=O)(=O)C1 (centres undefined)	0.533	-4.17
O=C(CCSc1ncnc2nc[nH]c12)c1ccccc1	1.07	0.276
Fc1ccc(C2=CC(Cl)=C(c3cccs3)Oc3ccccc32)cc1	1.03	1.03
CC(c1ccncc1)N(CCN(C)C)C(=O)Nc1ccccc1 (centres undefined)	0.984	-0.761
COCCCNC(=O)CN1C(=O)CSc2ccc(S(=O)(=O)N3CCOCC3)cc21	1.07	1.29
CC(=O)N1CCc2cc(S(=O)(=O)NC(Cc3ccccc3)C(=O)N3CCCCCC3)ccc21 (centres undefined)	1.02	0.97

Screening data (PubChem BioAssay)
